Bioassay records as filed in PubChem BioAssay.
Bead autofluor: compound fluorescence in toxin protease inhibitor counterscreen; compound autofluorescence counterscreen, microsphere flow cytometry; stronger effect = higher value; fluorescence intensity (no concentration beside the values); AID 624483; 360,000 tested, 3.1% active;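 active = at least 3 SD above the mean of all compounds, about 16000 in these data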;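 also: 100 nL of 1 mM stock went into each well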
Sa RN4220 lethal: S. aureus RN4220 growth inhibition; OD600, 16 h; 330,000 tested, 0.33% active; inhibition, % (test concentration not listed); AID 1259311;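 active = z-score of -3 or lower and OD600 up to 0.18 on both plates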;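 also: plate controls were untreated cells for no effect and reference antibiotic for full effect; stock transfer was 100 nL into about 80 µL; one replicate is shown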
BJeLR viability: BJeLR cell viability loss | BJeLR (HRASV12) viability, CellTiter-Glo ATP luminescence, 48 h; reference of the scale not given here | inhibition, % (test concentration not listed) | 300,000 tested, 0.17% active;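 active = replicate mean above 50%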;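 also: 50 nL library stock added to about 25 µL; numbers are from one replicate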
ugtP null kill: compounds lethal to S. aureus RN4220 ugtP deletion mutant; AID 1259309; 330,000 tested, 0.54% active; OD600 growth, 16 h; some inactives read as strong as hits; growth inhibition, % (test concentration not listed);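 active = z-score under -3 and OD600 up to 0.15 on both plates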;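 also: plate controls were untreated wells for no effect and antibiotic for full effect; wells of about 80 µL received 100 nL stock; the first replicate is given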
Mtb hypoxia inh: Mtb hypoxia fluorescent reporter inhibition; 300,000 tested, 0.1% active; M. tuberculosis hypoxia-regulated fluorescent reporter, fluorescence; AID 1159583; fluorescence inhibition, % (test concentration not listed);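 active = 35 to 45% if threefold the growth effect, above 45% if 1.5-fold the growth effect; inactive = the rest, general growth blockers included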;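 also: wells of about 50 µL received 100 nL stock; 0% = vehicle wells and 100% = reference inhibitor wells; whole bacteria with a GFP reporter of the hypoxia response; strong numbers were not always called active; many hits fall short of the cut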
PrP UTR inh: inhibition of PrP 5' UTR reporter expression | cell-based PrP 5' UTR mRNA reporter, plate reader | inhibition, % (test concentration not listed) | 340,000 tested, 0.35% active | AID 488862;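 active = every replicate at 50% or more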;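 also: 0 = median of the neutral control wells; tested in H4 reporter cells; numbers are from one replicate; inactives centre near -14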
Mtb hypoxia inh growth: recorded beside Mtb hypoxia inh, whose call it bears; growth inhibition, %; measured here: M. tuberculosis growth (absorbance);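 0% = vehicle and 100% = reference antibiotic; read after six days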
Active calls of the source: *; . = not tested or not shown.

Structure	Sa RN4220 lethal	Mtb hypoxia inh	Bead autofluor	BJeLR viability	ugtP null kill	Mtb hypoxia inh growth	PrP UTR inh
CCc1ccc2nc(NC(=O)C3CCN(c4ncnc5sc(C)c(C)c45)CC3)sc2c1	3.4	-13	4289	.	-15	5	-28
Cc1cccc(NS(=O)(=O)c2ccc3[nH]c(=O)[nH]c3c2)c1C	2.8	3	3645	-1	5	-14	-23
CCN(CC)S(=O)(=O)c1ccc(-c2nnc(SC)o2)cc1	1.7	-10	10116	2	-3	3	-41
CN(C)S(=O)(=O)c1ccc(NC(=O)c2cc(F)c(F)cc2Cl)cc1	-1.9	.	2732	-1	7	.	-9
N#CC(c1nc2ccccc2nc1N1CCOCC1)S(=O)(=O)c1ccccc1 (stereo not given)	11	9	3517	-4	6	-3	-19
O=C(CCC(=O)N1CCOc2ccccc21)NC1CCCCCC1	-10	7	4281	-1	6	6	-1
Cc1ccc(Cn2nnc3c(=O)[nH]c(C4CCCN(C(=O)c5ccco5)C4)nc32)cc1 (stereo not given)	3.5	5	3498	-10	14	7	-23
CC[C@]1(C(=O)OC)[C@H]2C(=O)N(Cc3ccccc3)C(=O)[C@H]2[C@H]2CN=C(SCC(=O)c3ccccc3)N21	4.6	-2	3984	.	-11	2	-17
Cc1nn(-c2ccccc2)c(N2CCCC2)c1C=NNC(=S)Nc1cc(C(F)(F)F)ccc1Cl	1.4	8	.	.	19	7	.
O=C1c2cccc3cccc(c23)C(=O)N1Cc1ccco1	5.6	9	4573	.	11	7	-22
CS(=O)(=O)N1CCCC(C(=O)NCc2ccco2)C1 (stereo not given)	-1.2	0	6843	6	-1	2	-20
Cc1ccccc1S(=O)(=O)Cc1ccc(C(=O)N2CC(C)CC(C)C2)o1 (stereo not given)	5.3	.	4462	2	6	.	-1
CC(C)NC(=O)N(O)C1N(Cc2ccc3c(c2)OCO3)C(=S)SC1(C)C (stereo not given)	0.5	.	2525	-4	-3	.	-7
COc1cc(OC)c(OC)cc1C=NNC(=O)c1cnccn1	7.4	3	.	.	7	-1	.
C(=C\c1ccccc1)/CSc1nnc(-c2ccccc2)n1Cc1ccco1	8.4	-1	23193*	-7	3	6	-31
CNC(=O)c1ccc(NC(=O)c2cc(S(=O)(=O)N3CCOCC3)ccc2N2CCCC2)cc1	4.2	8	3255	.	6	4	-20
CC1CCCCN1C(=O)CSc1nnc2c(n1)[nH]c1ccccc12 (stereo not given)	3.6	0	3735	-9	5	-2	-34
COc1ccc(C(CCNCc2ccc(N(C)C)cc2)c2ccccc2)cc1 (stereo not given)	-3.5	8	4222	6	3	5	-8
O=C1NC(c2ccccc2)=CC(c2ccccc2O)N1 (stereo not given)	9.0	16	3584	-2	-3	9	-6
C/C(CC(=O)Nc1ccccc1Cl)=N\NC(=O)C(=O)NCCO	.	.	4382	-4	.	.	-36
CC(=O)Nc1ccc(S(=O)(=O)N(C)CC(=O)Nc2ccc(F)c(F)c2F)cc1	2.6	7	6901	.	9	-1	-19
Cc1cc(-c2ccccc2)c2c(=O)n(-c3ccccc3)[nH]c2n1	4.5	3	4439	-6	15	6	-17
Cc1cccc(NC(=O)/C(C#N)=C/c2cn(CC(=O)NCc3ccco3)c3ccccc23)c1C	3.1	3	2153	9	-4	10	-14
O=C(CSc1nccc(=O)[nH]1)Nc1ccc2ccccc2c1	0.3	6	4149	.	-10	-1	-11
O=C(NCCCO)c1cc2c([nH]c3ccccc32)c(-c2ccc(F)cc2)n1	2.2	-6	4630	-14	-8	-13	-7
COc1ccc(NC(=O)CCNC(=O)C2CCN(S(=O)(=O)c3ccc(F)cc3)CC2)cc1OC	0.6	4	5741	-2	4	3	-4
CCc1ccc(C(=O)NC2CCCCC2)s1	5.3	.	20340*	-7	-12	.	-109
O=C(N/N=C1\CCCc2ccccc21)c1ccc([N+](=O)[O-])cc1	.	.	5566	5	.	.	-49
CCN1CCN(S(=O)(=O)c2ccc3c(c2)NC(=O)CS3)CC1	1.7	3	5734	1	3	15	0
O=C(CC1SC2=NCCN2C1=O)Nc1ccccc1 (stereo not given)	3.3	1	5735	-1	-4	12	-34
CCCc1cc(=O)oc2c(C)c(OCc3nn[nH]n3)ccc12	5.7	5	4004	5	11	12	-10
COc1ccc(Br)cc1S(=O)(=O)N(CC(=O)N1CCOCC1)c1ccccc1	4.4	6	9208	13	8	-2	-26
Cc1noc(C)c1S(=O)(=O)N(CC(=O)N1CCc2ccccc21)c1ccc(C(C)C)cc1	5.0	.	5995	6	6	.	-7
CCN(CC)CC(=O)N1c2ccccc2Sc2ccc(Cl)cc21	3.5	17	3631	-9	9	3	-23
Cc1c(CC(=O)O)c(=O)oc2c(C)c(OCc3nn[nH]n3)ccc12	-0.5	-8	4411	-4	1	3	-31
CC(=O)Nc1ccc(NC(=O)c2c(C)nn(Cc3ccccc3)c2Cl)cc1	5.4	10	3814	-1	14	2	-33

One compound at a time, from the list above. Values in the order: Sa RN4220 lethal | Mtb hypoxia inh | Bead autofluor | BJeLR viability | ugtP null kill | Mtb hypoxia inh growth | PrP UTR inh
`CC(=O)Nc1ccc(NC(=O)c2c(C)nn(Cc3ccccc3)c2Cl)cc1` as listed: 5.4 | 10 | 3814 | -1 | 14 | 2 | -33
`Cc1nn(-c2ccccc2)c(N2CCCC2)c1C=NNC(=S)Nc1cc(C(F)(F)F)ccc1Cl` as listed: 1.4 | 8 | . | . | 19 | 7 | .
`CC1CCCCN1C(=O)CSc1nnc2c(n1)[nH]c1ccccc12` (stereo not given) as listed: 3.6 | 0 | 3735 | -9 | 5 | -2 | -34
`Cc1ccccc1S(=O)(=O)Cc1ccc(C(=O)N2CC(C)CC(C)C2)o1` (stereo not given) as listed: 5.3 | . | 4462 | 2 | 6 | . | -1

More compounds follow.
Structure	Sa RN4220 lethal	Mtb hypoxia inh	Bead autofluor	BJeLR viability	ugtP null kill	Mtb hypoxia inh growth	PrP UTR inh
C/C(=C\c1ccccc1)C(=O)NCCN1CCOCC1	-0.3	-8	2440	-1	1	5	-26
Cc1noc(NS(=O)(=O)c2ccc(NC(=O)c3ccccc3NS(=O)(=O)c3ccc(F)cc3)cc2)c1C	7.7	9	3607	.	-3	3	-4
CCOC(=O)c1cc(S(=O)(=O)NC2CCCCC2)cn1C	3.2	-1	4280	3	5	-6	-5
O=C(CN1CCN(C(=O)C2CCCO2)CC1)Nc1cc(C(F)(F)F)ccc1Cl (stereo not given)	4.6	-1	5336	-24	11	-23	-5
O=C(CSc1n[nH]c(-c2ccccn2)n1)Nc1ccc(Cl)cc1	.	.	6127	8	.	.	9
O=C(O)c1cc2[nH]c3c(c2cc1Cl)CCCC3	.	.	4219	1	.	.	-20
COc1ccc(CN(C(=O)c2nsc(Cl)c2Cl)C(C(=O)NC2CCCC2)c2ccc(C)cc2)cc1 (stereo not given)	-5.0	0	2335	3	-17	11	-5
CC(=O)Nc1ccc(Cl)c(C(N)=O)c1	6.4	13	19829*	5	7	6	-29
Cc1ccc(NC(=O)CN(C)C(=O)CCSc2ccc(F)cc2)cc1	6.0	5	2991	.	2	1	12
Cc1ccc(C)c(S(=O)(=O)N2CCCOC2CNC(=O)C(=O)NCCCN2CCOCC2)c1 (stereo not given)	2.5	6	4620	4	5	1	-20
Cc1cc(C(=O)COC(=O)c2nccnc2N)c(C)n1C	6.8	-1	3559	-3	2	2	-2
COc1cccc(-n2nnnc2SCC(=O)c2ccc(NC(C)=O)cc2)c1	0.1	2	8751	-4	-22	11	0
CC(C)CNC(=O)c1cccc(NC(=O)c2ccc(NC(=O)c3ccco3)cc2)c1	5.1	3	9201	2	-9	5	-28
O=C(NCC1CCCO1)c1cn(-c2ccccc2)nc1-c1ccc(F)cc1 (stereo not given)	1.6	-3	5862	5	4	-3	-38
O=C1CCCCC1C(=O)c1cn(-c2ccc(Cl)c(Cl)c2)nn1 (stereo not given)	10.0	6	3781	-1	6	8	-28
CCOc1cc(C(=O)OCC(=O)Nc2cccc(C)c2)ccc1OCC(=O)N1CCOCC1	.	.	2198	0	.	.	-21
COc1cc(S(=O)(=O)NCc2ccccc2)ccc1Br	12	.	2428	-7	3	.	-17
OCCOCCn1c(C(CO)Nc2nc(-c3ccc(F)cc3)cs2)nc2ccccc21 (stereo not given)	4.3	22	3987	-2	7	10	-22
COc1ccc(OC)c(-c2csc(NC(=O)CSc3ccccc3)n2)c1	-7.9	-6	2475	-9	-20	4	-24
CC(=O)Nc1nnc(C2=COCCO2)o1	4.9	-1	3859	7	3	7	-24
COc1cc(OC)cc(C(=O)Nc2nc(-c3ccccc3)c(-c3ccccc3)o2)c1	23	-6	2695	-5	-1	8	15
CC(C)(C)NC(=O)CCN(N=Cc1ccccc1O)C1=NS(=O)(=O)c2ccccc21	4.9	7	.	.	12	1	.
COC(=O)[C@]12C(=O)NCC(CN1c1ccc(Cl)c(C)c1)N2C	6.2	6	.	.	9	6	.
Cc1ccccc1CC1(CO)CCCN(Cc2cn[nH]c2-c2ccccc2)C1 (stereo not given)	3.6	-1	3673	1	2	15	-6
CCOC(=O)C1CCN(Cc2cc(Cl)c3ccccc3c2O)CC1	7.3	-9	4237	4	1	-6	-29
c1ccc(-c2ccc(-c3ccccc3)[nH]2)cc1	-0.6	20	3910	.	7	8	-97
N#CCc1ccc(NC(=O)Nc2cccc(Cl)c2)cc1	.	.	3312	5	.	.	-46
N#Cc1ccc(OCC(O)CN2CCN(C(c3ccccc3)c3ccccc3)CC2)cc1 (stereo not given)	-0.9	-12	4085	3	13	7	-21
CC(NC(=O)COC(=O)c1ccc(OCC2CCCO2)cc1)c1ccccc1Cl (stereo not given)	0.8	2	5699	.	2	2	-23
C=CCNC(=O)CSc1nnc(-c2ccccc2Br)n1-c1cccc(C(F)(F)F)c1	6.5	-1	2628	-6	4	-1	-13
CCN1CCN(c2nc(N)c([N+](=O)[O-])c(Nc3ccc(C)cc3)n2)CC1	0.8	2	2497	11	-8	4	-32
CCCCn1c(CNC(=O)CC)nc2ccccc21	-17	5	6694	-1	-4	3	-6
COCC(=O)Nc1sc2c(c1C(=O)OC)CCCC2	7.9	15	5668	5	12	20	-19
C/C(CC(O)c1ccc2ccccc2n1)=N/O (stereo not given)	.	.	20613*	0	.	.	-4
CC(C)OS(C)(=O)=O	2.5	14	5520	.	9	14	-7
COc1ccc(CN(CC(=O)NCC2CCCO2)C(=O)CNS(=O)(=O)c2ccc(C)cc2)cc1 (stereo not given)	1.1	.	2768	-11	1	.	-12
O=C(NCCc1ccccc1C(F)(F)F)C1CCC(=O)N(CCCN2CCCC2=O)C1 (stereo not given)	1.4	1	3420	0	2	0	-19
CCOc1ccc(Br)cc1C(=O)NN=Cc1ccc([N+](=O)[O-])cc1	-0.4	2	.	.	-2	-5	.
CCOc1ccccc1N(CC(=O)OC)S(C)(=O)=O	2.4	6	11405	0	2	5	-12
Cc1c(Cl)cccc1NC(=O)CN(C1CCCCC1)S(C)(=O)=O	-0.5	-5	3125	1	3	2	-23
COc1ccc(CC(NC(C)=O)C(=O)N2CCN(C(=O)Nc3ccc(Cl)cc3)CC2)cc1OC (stereo not given)	-0.9	-1	22516*	.	-6	12	-11
Cc1cccc(NNC(=O)c2c(F)cccc2Cl)c1	9.0	-3	6297	-5	20	7	-11
COc1ccc(C(=O)NCCN2CCN(C(=O)c3ccc(OC)c(OC)c3)CC2)cc1OC	2.8	2	5428	-7	18	10	-10
CCOC(=O)CN1C(=O)C(=O)N(Cc2ccccc2F)C1=O	0.7	10	3849	3	6	8	7
O=C(CCSc1ccccc1)N1CCOCC1	2.5	.	3356	0	4	.	-78
O=C(Nc1ccc(Cl)c(Cl)c1)c1cccc(S(=O)(=O)NCc2cccnc2)c1	100*	2	2157	5	90	7	-14
Cc1[nH]c2c(C)cccc2c1CC(=O)O	0.8	7	4563	-21	3	10	-25
c1csc(CNc2ncnc3ccc(-c4ccoc4)cc23)c1	-5.8	3	3706	.	-29	8	21
Cc1cc(NS(=O)(=O)c2ccc(NC(=O)c3ccco3)cc2)nc(C)n1	1.4	19	21969*	-1	3	16	-10
